# From PubChem BioAssay
# AID504770 – growth inhibitors of E. coli YBA685 in a screen for V. cholerae RctB (chromosome II replication) inhibitors; E. coli YBA685 rctB-dependent plasmid, OD600 growth, 3 h; active compounds read low; z-score (test concentration not listed); hit rate 0.27% among 130,000;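 active means z-score under -2 on both plates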;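 further: wells of about 30 µL received 100 nL stock; score is relative to mean and SD of the test wells; the first replicate is given; strong numbers were not always called active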
# CapD inh – blocks the Bacillus anthracis CapD enzyme | purified CapD enzyme, fluorescence intensity read-out; active compounds read low; some hits fall short of the stated cut | z-score (concentration not given with the values) | hit rate 0.23% among 140,000;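 active means z-score under -4 in either of two replicates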;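 further: stock transfer was 100 nL into about 40 µL; score is relative to mean and spread of the plate; one replicate is shown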
# The depositor's hits bear a star; x = no result given.
SMILES,AID504770,CapD inh
Cc1ccc(-n2c(=O)c3ccccc3n3c(SCC(=O)N(C(C)C)C(C)C)nnc23)c(C)c1,0.25,x
CCOC(=O)c1c(CN2CCN(c3ccccc3C)CC2)n(-c2ccccc2)c2cc(Br)c(OC)cc12,x,-0.6
CC(C)CNC(=O)c1ccc(N2CC3CC(C2)c2cccc(=O)n2C3)c(NS(=O)(=O)c2ccc(Br)cc2)c1 (centres undefined),x,0.04
CN1C(C(=O)NCC23CC4CC(CC(C4)C2)C3)=CC(c2ccco2)=NS1(=O)=O,-0.25,2.8
Cc1cc(C)c2c(c1)Cc1cc3ccccc3nc1-2,x,16
N#Cc1c(-c2ccccc2)nc(SCCN2C(=O)c3ccccc3C2=O)[nH]c1=O,-0.15,-0.29
O=C(Cc1cccs1)Nc1cccc(-c2nn[nH]n2)c1,-0.35,-0.42
CC1CCN(S(=O)(=O)c2ccc(C(=O)Nc3nc(-c4ccncc4)cs3)cc2)CC1,-0.4,x
Cc1oc2nc[nH]c(=O)c2c1C(=O)O,-0.1,x
Cc1ccc(-c2nnc(NCc3nc4ccccc4[nH]3)c3ccccc23)cc1S(=O)(=O)N1CCOCC1,x,0.58
COCCn1cnc2cc(C)c(C)cc21,-0.25,-0.39
COc1cc(OC)cc(C(=O)Nc2ccc3oc(-c4ccc(OC)c(Br)c4)nc3c2)c1,x,46
COC(=O)C1CCCN1S(=O)(=O)c1ccc(Cl)cc1 (centres undefined),-0.35,x
Oc1cccc(O)c1,0.5,0.16
CCOC(=O)C1=C(CSc2nc(CC)c(C)cc2C#N)OC(N)=C(C#N)C1c1cccs1 (centres undefined),x,0.81
CCOC(=O)C1CCN(c2ccc([N+](=O)[O-])cc2)CC1,x,0.31
CCOC(=O)c1cc(C)nc(Sc2ccc(Cl)cc2)n1,0.35,0.42
O=C(Cn1cncn1)N/N=C/c1cccs1,-0.1,x
CCOC(=O)C1=C(C)NC2=C(C(=O)C(C(=O)OC)C(C)C2)C1c1ccc(OC)cc1 (centres undefined),-0.65,27
O=C(Nc1ccc2c(c1)OCO2)C1CCCC1,-1.8,x
COc1ccc(CCNC(=O)c2ccc3c(c2)S(=O)(=O)N=C2CCCCCN23)cc1OC,-0.45,x
CCOC(=O)c1c(NC(=O)c2sc3cc(Cl)ccc3c2Cl)sc2c1CCCC2,x,-0.14
CCOC(=O)c1ccc(Nc2ncnc3c2cnn3-c2ccc(OC)cc2)cc1,x,6.4
O=c1c(Cl)c(Cl)cnn1C12CC3CC(CC(C3)C1)C2,0.3,0.49
CCC(C)NC(=O)C1CCC(=O)N1CCc1ccccc1 (centres undefined),0.25,0.36
COc1ccc(C2CC(=O)Nc3c2ccc2ccccc32)cc1OC (centres undefined),x,0.17
Cc1ccc2nc(-c3ccc(F)cc3)c(-c3ccc(F)cc3)nc2c1,x,0.11
COc1cccc(C(=O)/C=C(\Nc2ccc3c(c2)COC3=O)C(=O)O)c1,0,-0.12
COc1ccc(C2=NN(S(=O)(=O)c3ccc(C)cc3)C(c3ccc(N(C)C)cc3)C2)cc1OC (centres undefined),x,0.36
CCOC(=O)c1cc(-c2ccc(F)cc2)n(CC(=O)Nc2nccs2)c1C,-0.85,-0.94
CC(=O)Nc1ccc(F)c(C#N)c1,2.4,-1.1
CCn1c(C(=O)N2CCC(C(=O)N3CCc4ccccc4C3)CC2)cc2occc21,-0.75,-0.02
Cc1cc(=O)oc2cc(OC(=O)C3CCCN3C(=O)OC(C)(C)C)c(Cl)cc12 (centres undefined),1.9,37
CC(=O)NC1C(OCC(C)C)OC(COC(C)=O)C(OC(C)=O)C1OC(C)=O (centres undefined),0.15,x
O=C(Nc1ccc(N2CCCC2)cc1)c1cc2ccccc2o1,0.05,-0.38
Cc1ccc(N=Cc2ccncc2)cc1,1.9,-0.4
CC1(C)Cc2cccc(C(=O)Nc3ccc(C(F)(F)F)cc3)c2O1,-0.6,0.39
CCOC(=O)N1CCN(C(=O)CCN2C(=O)/C(=C/c3ccc(OC)c(OC)c3)SC2=S)CC1,x,-0.1
COc1ccc(C/C(C#N)=C/N2CCN(c3ccccc3F)CC2)cc1,0.2,x
Cc1cc(C)n2nc(C(=O)NCc3ccc4c(c3)OCO4)nc2n1,0.3,x

# Exported with values under each structure: 15 of the compounds above.
# Below each SMILES – AID504770 | CapD inh
COc1ccc(C2CC(=O)Nc3c2ccc2ccccc32)cc1OC (centres undefined)
  x | 0.17
Cc1ccc2nc(-c3ccc(F)cc3)c(-c3ccc(F)cc3)nc2c1
  x | 0.11
COc1cccc(C(=O)/C=C(\Nc2ccc3c(c2)COC3=O)C(=O)O)c1
  0 | -0.12
COc1ccc(C2=NN(S(=O)(=O)c3ccc(C)cc3)C(c3ccc(N(C)C)cc3)C2)cc1OC (centres undefined)
  x | 0.36
CCOC(=O)c1cc(-c2ccc(F)cc2)n(CC(=O)Nc2nccs2)c1C
  -0.85 | -0.94
CC(=O)Nc1ccc(F)c(C#N)c1
  2.4 | -1.1
CCn1c(C(=O)N2CCC(C(=O)N3CCc4ccccc4C3)CC2)cc2occc21
  -0.75 | -0.02
Cc1cc(=O)oc2cc(OC(=O)C3CCCN3C(=O)OC(C)(C)C)c(Cl)cc12 (centres undefined)
  1.9 | 37
CC(=O)NC1C(OCC(C)C)OC(COC(C)=O)C(OC(C)=O)C1OC(C)=O (centres undefined)
  0.15 | x
O=C(Nc1ccc(N2CCCC2)cc1)c1cc2ccccc2o1
  0.05 | -0.38
Cc1ccc(N=Cc2ccncc2)cc1
  1.9 | -0.4
CC1(C)Cc2cccc(C(=O)Nc3ccc(C(F)(F)F)cc3)c2O1
  -0.6 | 0.39
CCOC(=O)N1CCN(C(=O)CCN2C(=O)/C(=C/c3ccc(OC)c(OC)c3)SC2=S)CC1
  x | -0.1
COc1ccc(C/C(C#N)=C/N2CCN(c3ccccc3F)CC2)cc1
  0.2 | x
Cc1cc(C)n2nc(C(=O)NCc3ccc4c(c3)OCO4)nc2n1
  0.3 | x

# (next part)
SMILES,AID504770,CapD inh
Cc1ccc(Cl)cc1NC(=O)N1CCN2CCCCC2C1 (centres undefined),1.2,-0.32
NC(=O)COC(=O)COc1ccccc1,-0.65,-0.06
Cc1ccc(Sc2ccc(/C=N/OC(=O)c3ccccc3Cl)cn2)cc1,x,-0.21
CN(Cc1ccccc1)c1cc(N2CCC3(CC2)OCCO3)c2noc3c2c1C(=O)c1ccccc1-3,1.9,-2.1
CCCCNC(=O)c1cn(CC)c2ccc(S(=O)(=O)N(C)C3CCCCC3)cc2c1=O,-1.1,-0.26
CCCC1CCC(C(=O)NC(C(=O)O)C(C)C)CC1 (centres undefined),-0.05,0.72
COc1ccc(Nc2nc3ccccc3[nH]2)cc1,-0.85,-0.25
CCc1cccc(C)c1N(C(=O)c1ccco1)C1=NCCC(=O)S1,0.5,-0.36
N#C/C(=C\c1ccccc1)C(=O)OCC1CCCO1 (centres undefined),-0.9,x
COc1ccc(Br)cc1/C=c1/sc2n(c1=O)C(N)=C(C#N)C(c1cc(Br)ccc1OC)C=2C#N (centres undefined),x,0.01
CN1C(C(=O)Nc2cccnc2)=CC(c2ccco2)=NS1(=O)=O,1.1,-1.8
O=C1Sc2ccc(S(=O)(=O)Nc3ccc(Br)cc3)c3cccc1c23,-0.3,-0.6
COCC(C)n1c(COc2ccccc2F)nnc1SCC(=O)OC(C)(C)C (centres undefined),-0.05,x
CCOc1cc(C2Nc3cc(C)c(C)cc3NC3=C2C(=O)CC(C)(C)C3)ccc1OC(=O)C1CC1 (centres undefined),x,0.085
CC(C)c1ccc(NC(=O)C(c2ccccc2)N(C)C(=O)Cc2cccs2)cc1 (centres undefined),x,-1.1
O=C(COC(=O)c1ccccc1)NC1CCCCCC1,-1.1,-0.6
O=C1/C(=C/c2ccccc2Cl)CCC/C1=C\c1ccccc1Cl,x,0.6
COc1ccc(C(=O)Nc2nc3c(s2)CC(C)CC3)cc1 (centres undefined),-0.35,1.3
O=C(Oc1ccccc1)C1CCN(c2ccc(C(F)(F)F)cn2)CC1,-1,0.83
CCOc1ccc(N2C(=O)C3C4c5ccccc5C(C=Nc5cccc(C)c5)(c5ccccc54)C3C2=O)cc1 (centres undefined),x,-0.29
N#CC(Cc1cccs1)c1nc2ccccc2[nH]1 (centres undefined),-0.6,x
O=C(CCc1nc2ccccc2[nH]c1=O)OCC(=O)c1ccc(F)cc1,2.5,x
CCOC(=O)C1CCN(C(=O)c2sc3ncn(CC(=O)Nc4cccc(C(F)(F)F)c4)c(=O)c3c2C)CC1,x,-1
Nc1c(-c2ccc(F)cc2)cnc2nc(N3CCN(c4ccccc4)CC3)nn12,x,0.12
Cc1cc2c(c(=O)[nH]1)C(=O)O/C2=C\c1ccco1,-0.85,0.61
CCN(CC)C(=S)NCCc1ccccc1,-0.45,0.08
O=CNC1c2ccccc2Oc2ccccc21,-0.25,0.56
COc1cccc(CN2CCc3[nH]c(=S)[nH]c(=O)c3C2)c1,0.4,-0.21
CCn1c(SCC(=O)O)nc2ccccc21,x,-0.18
O=C1CCCC2=C1C1(O)C(=O)c3ccccc3C1(O)O2 (centres undefined),1.4,-0.21
O=C(c1cnc2ccccc2n1)N1CCN(S(=O)(=O)c2ccc3c(c2)OCCCO3)CC1,0.05,x
COc1cccc(CNC2CN3CCC2CC3)c1 (centres undefined),2.2,-0.55
CCOc1ccc2oc(-c3cc(Br)cc4c3OCOC4)c(N)c(=O)c2c1,-0.9,1
O=C1c2cccc3cc(Br)cc(c23)C(=O)N1Nc1ccc(Cl)cc1,1.6,-0.73
CC(C)(C)c1cc2ncc(S(=O)(=O)c3ccc(Cl)cc3)c(N)n2n1,-0.95,0.73
Cc1cc(C)n2c(SCC(N)=O)nnc2n1,1.1,x
CCc1ccc(-n2[nH]c(C)c(C(c3ccccc3O)c3c(C)[nH]n(-c4ccc(CC)cc4)c3=O)c2=O)cc1,x,-0.53
Cc1c(/C=C(\C#N)C(=O)Nc2nccs2)cc(C#N)n1C,-0.55,x
COC(=O)C1=C(C)NC(SCC(=O)Nc2ccc(C)cc2C)=C(C#N)C1c1ccccc1Cl (centres undefined),x,-0.02
COc1ccc(-c2cnn(-c3ccc(NS(=O)(=O)c4ccc(Cl)cc4)cc3)c2)cc1,x,-0.32
COc1cc2c3c(c1OC)C1(C=CC(=NNC(N)=O)C=C1)CC3N(C(C)=O)CC2 (centres undefined),-0.8,x
Cc1cc(C)nc(OCc2ccccc2C)n1,x,-0.43
N#CC1(NC(=O)CNc2ccc(I)cc2)CCCC1,-0.1,x
C/C(=N\NC(=O)Cc1cc(=O)[nH][nH]1)c1ccco1,-0.95,-0.18
CC(C)N1CCC(c2ccccc2)C1 (centres undefined),0,-0.21
COCCN1C(=O)/C(=C/c2sccc2C)SC1=S,0.2,0.21
CC(=O)NCCNc1nc2c(S(=O)(=O)c3ccc(C)cc3)nnn2c2ccccc12,0.05,x
CCN(C(=O)c1cn(CC(C)C)c(=O)c2cc(OC)c(OC)cc12)c1ccccc1C,-0.6,1.4
Cc1ccccc1N1CC(O)(c2ccc(F)cc2)[N+]2=C1CCCC2 (centres undefined),x,0.095
CC(C)Nc1nc(-c2ccc(Cl)cc2)c(S(C)(=O)=O)cc1C#N,x,0.43
C=CCOc1nc(N(C)C)nc(N2CCOCC2)n1,-0.3,-0.64
C=CCn1c(CCN2CCCCC2)n[nH]c1=S,-0.55,x
O=C(CCN1CCN2CCCC2C1)N1c2ccccc2Sc2ccc(Cl)cc21 (centres undefined),x,-0.005
Cc1ccc(OCCN)c(Br)c1,-0.65,0.49
O=C1CC(C(=O)N2CCOCC2)C2(CCCCC2)O1 (centres undefined),-0.35,0.21
Clc1ccc(C2(c3noc(-c4cccs4)n3)CC2)c(Cl)c1,-0.05,0.18
CCn1c(/C=C/c2ccccc2)nnc1SCc1ccc(Cl)c(Cl)c1,x,4.4
N#Cc1oc2ccccc2c1NC(=O)CSc1nnc2n(-c3ccccc3)c(=O)c3ccccc3n12,-0.05,x
COc1ccc(NC2=NC(C)(C)Cc3cc(OC)c(OC)cc32)cc1,x,-0.48
O=C(NC(=S)N1CCCC1)c1ccccc1,1.1,-0.07

# Random excerpt: two compounds from above.
SMILES,AID504770,CapD inh
C=CCn1c(CCN2CCCCC2)n[nH]c1=S,-0.55,x
Cc1ccccc1N1CC(O)(c2ccc(F)cc2)[N+]2=C1CCCC2 (centres undefined),x,0.095

# (list continues)
SMILES,AID504770,CapD inh
CCN(CC)C(=O)c1ccc(COc2ccccc2Cl)cc1,-0.75,0.29
Cc1ccc(S(=O)(=O)NC(C(=O)Oc2ccc3c4c(c(=O)oc3c2)CCCC4)C(C)C)cc1 (centres undefined),0.1,2.7
O=c1c2ccccc2ncn1CCOc1cccc(C(F)(F)F)c1,0.15,0.53
COc1ccc(C2C(C#N)=C(N)OC3=C2C(=O)CC(C)(C)C3)cc1COc1ccc(F)cc1 (centres undefined),x,-0.39
CC(=O)N/C(=C\c1ccccc1)C(=O)OCc1nc(N)nc(Nc2ccccc2C)n1,-0.65,x
N#CC(=C1Nc2ccccc2N1)c1nc(C#N)c(C#N)nc1Cl,-0.1,-0.8
CCc1nnc(/N=C/NO)s1,x,0.28
CSc1nc(Cl)c2c(n1)N(c1cc(C)cc(C)c1)CC2,x,-0.21
COc1ccc(CCn2c(=S)[nH]c3cc(C(=O)NCc4cccnc4)ccc3c2=O)cc1OC,x,0.1
O=S(=O)(c1cccc(F)c1)N1CCN(c2cccc3[nH]ccc23)CC1,x,-0.63
CN(C(=O)COC(=O)c1cc(=O)c2ccccc2o1)c1ccccc1,0.25,x
CCOC(=O)c1ccc(-c2ccc(/C=C3\C(=O)N(c4cccc(Cl)c4)N=C3C)o2)cc1,x,1.3
CC(=O)C1COc2ccc(C)cc2C1=O (centres undefined),x,9
Cn1c(=O)c2[nH]c(SCC(=O)C(C)(C)C)nc2n(C)c1=O,-0.05,x
C=CCN1C(=O)/C(=C\c2ccc(OC)cc2)C(=O)NC1=S,-0.8,-0.48
CCOC(=O)c1c(NC(=O)CCN2CCOCC2)sc(C)c1-c1ccccc1,1.4,0.28
CN1CCN(S(=O)(=O)N(C)C)CC1,0,-0.79

# An excerpt. The share of hits here may be higher or lower than overall.
